VDR inh – vitamin D3 receptor (human) inhibition; VDR-SRC2-3 peptide fluorescence polarization, 2 h; Potency, µM, for the others: max response, negative = inhibition, usual class: inhibitors; 400,000 compounds, 0.93% hits; AID 504847; active = well fitted inhibition curve with a large enough effect; inconclusive = small, poorly fitted or top-dose-only effect, or another doubt; inactive = no such curve, though single readings can be large or run the other way; note: series mostly up to about 120 µM
Target sequence (P11473 whole entry, looked up): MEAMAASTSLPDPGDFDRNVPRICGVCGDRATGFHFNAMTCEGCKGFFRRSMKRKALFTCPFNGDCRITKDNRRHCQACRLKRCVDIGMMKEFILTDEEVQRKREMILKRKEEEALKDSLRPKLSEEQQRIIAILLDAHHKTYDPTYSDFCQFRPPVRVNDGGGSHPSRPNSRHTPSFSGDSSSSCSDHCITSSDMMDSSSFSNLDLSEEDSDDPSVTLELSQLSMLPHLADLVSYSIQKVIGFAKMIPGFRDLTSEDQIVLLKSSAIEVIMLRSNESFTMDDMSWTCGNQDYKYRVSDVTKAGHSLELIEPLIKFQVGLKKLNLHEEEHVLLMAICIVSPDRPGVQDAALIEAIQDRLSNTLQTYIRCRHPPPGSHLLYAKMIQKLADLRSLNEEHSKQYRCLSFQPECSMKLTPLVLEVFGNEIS
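Two reagent solutions held at 4 deg C in the dark were dispensed, compounds pinned at 23 nl, and the mixture incubated 2 h at room temperature. Read-out: fluorescence polarization of VDR–SRC2-3 peptide binding.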
* marks the source's active call; other numbers are inactive results; ? = inconclusive; & = joins results of further samples; [ ] = dose if it differs, or a comment. % is set by controls: 0 for no effect and ±100 for the full control effect; potency is the fitted concentration of half-maximal effect. This is a subset. The share of hits here may be higher or lower than overall.

SMILES | VDR inh
COc1ccccc1C(=O)N1CCN(Cc2cn[nH]c2-c2ccc(F)cc2F)CC1 | 10%
Cc1cccc(Nc2nc3ccccc3s2)c1C | -16%
Cc1ccccc1NS(=O)(=O)c1ccc(C(=O)N2CCC2)cc1 | -18%
CCC(=O)Nc1cc2c(cc1C(=O)CC)OCCO2 | -19%
CC(=O)Nc1nonc1-c1nc2ccccc2n1Cc1nnc(C)o1 | -7%
CSc1ccc(-c2nnn(CC(=O)Nc3sc4c(c3C#N)CCC(C(C)(C)C)C4)n2)cc1 (stereo not drawn) | -16%
O=C(C(=O)N1CCc2ccccc2C1)c1c[nH]c2ccccc12 | -5%
COCCCNC(=O)Cn1nc(-c2ccc(C)cc2)ccc1=O | -10%
CC1CCCN(c2ncnc3c2cnn3-c2ccc(Cl)cc2)C1 (stereo not drawn) | -12%
O=C(C1CCCCC1)N1CCCC(c2nc3c(nnn3Cc3ccccc3)c(=O)[nH]2)C1 (stereo not drawn) | 6%
Cc1ccc(-c2nnc(SCC(=O)NNC(=O)COc3cccc(C)c3)n2C)cc1 | -8%
NS(=O)(=O)c1ccc(CCNC(=O)CCCn2c(=O)[nH]c3ccc(Br)cc3c2=O)cc1 | 11%
CC(N)C(=O)NC(CO)C(O)C(N)C=O (stereo not drawn) | -5%
CC(C)C(NC(=O)c1c(F)cccc1F)C(=O)NCCc1ccc(S(N)(=O)=O)cc1 (stereo not drawn) | 4%
O=C(Nc1cccc2ncccc12)C(c1ccccc1)c1ccccc1 | -11%
O=C(N/N=C/c1ccc(Cl)cc1Cl)c1n[nH]c2c1CCCC2 | -8%
CCN1CCN(C(=O)N(Cc2ccc(Cl)cc2)S(=O)(=O)c2ccc(C)cc2)CC1 | -2%
COCCCNC(=O)c1ccc(Cn2c(=O)c3ccccc3n(CC(=O)Nc3ccc(C)cc3C)c2=O)cc1 | -2%
Cc1cc(C)nc(SCC(=O)Nc2ccccc2[N+](=O)[O-])n1 | -3%
CCN(CC)S(=O)(=O)c1cc(NS(=O)(=O)c2cc(Cl)ccc2Cl)ccc1C | -13%
Cc1ccc(S(=O)(=O)NN/C(=N/S(=O)(=O)c2ccccc2)c2ccccc2)cc1 | 10%
O=C(O)c1cccc(-n2cnnn2)c1 | -15%
Cc1ccc(-n2ncc(C(=O)NCCc3ccsc3)c2C2CCN(C(=O)OC(C)(C)C)CC2)cc1C | 17%
CC(=O)O[C@]1(C(C)=O)CCC2C3C=C(C)C4=CC(=O)CC[C@]4(C)C3CC[C@@]21C (stereo partly drawn) | 13%
O=C(CSc1nnc(-c2ccco2)n1Cc1ccccc1)c1ccc(F)cc1 | -10%
Cc1nc(SCC(=O)OCc2ccccc2)c2c(=O)n(C)c(=O)n(C)c2n1 | -17%
COC(=O)CCCn1nc(NC(=O)c2ccco2)cc1C | -13%
O=C(Nc1cc(F)ccc1F)N1CCN(c2ccnc3cc(Cl)ccc23)CC1 | ?
Nc1ccccc1-c1ccn[nH]1 | -4%
CN1CCN(c2nc3c(c(=O)n(C)c(=O)n3C)n2Cc2ccccc2Cl)CC1 | 2%
CCOc1nc(SCCOc2ccc(C)cc2)nc(N(C)C)n1 | 19%
COc1cccc(NC(=O)C(C)NS(=O)(=O)c2ccc(Br)cc2)c1 (stereo not drawn) | -13%
CC1(C)CC2CC(C)(CN2C(=O)COC(=O)c2cc(Cl)cc(Cl)c2N)C1 (stereo not drawn) | 5%
COc1ccc(NC(=O)CC2C(=O)N(c3cccc(OC)c3)C(=O)N2Cc2cccnc2)cc1 (stereo not drawn) | 7%
Cc1ccc(O)c(/C=N/NC(=O)COc2ccc3c(C)cc(=O)oc3c2)c1 | 1%
CC(=O)N(C(C)=O)c1cccc(N(Cc2ccccc2)Cc2ccccc2)c1 | -2%
COc1cc(OC)c2ccc(=O)oc2c1C(CCN1CCCC1)c1ccc2c(c1)OCO2 (stereo not drawn) | -11%&-12%
Cn1nc(C(=O)Nc2ccc(-n3cnnn3)cc2)c2ccccc2c1=O | 32%[activator]
CCOc1ccc(NS(=O)(=O)c2ccc(NC(=O)C3CCCO3)cc2)cc1 (stereo not drawn) | 1%
Cc1[nH]n(S(=O)(=O)Cc2ccccc2)c(=O)c1N=Nc1ccccc1Cl | 4%
O=C(c1ccc(CSc2nc3ccncc3n2Cc2ccccc2F)cc1)N1CCCCC1 | -3%
CC(C)c1ccc(N(C(=O)c2cc3ccccc3oc2=O)C2C=CS(=O)(=O)C2)cc1 (stereo not drawn) | -1%
Cc1cc(SCc2ccc(Br)cc2)nc(=O)[nH]1 | -3%
O=C(CSc1nnc(CNC(=O)c2c(F)cccc2Cl)o1)NCCc1ccccc1 | 11%
Cc1nc(Nc2ccccc2)sc1C | 2%
O=C(O)Cn1nc(-c2ccc(F)cc2)oc1=O | ?
OC(CN1CCN(c2ncc(C(F)(F)F)cc2Cl)CC1)c1ccccc1 (stereo not drawn) | -12%
Cc1nnc2ccc(-c3cccc(NS(=O)(=O)c4ccccc4Cl)c3)nn12 | 1%
COc1ccc(NC(=O)COc2ccc(/C=N/n3c(C)nnc3C)cc2OC)cc1 | 9%
CSc1ccccc1C(=O)Nc1ccc(S(=O)(=O)NC2=NCCCCC2)cc1 | -26%
O=c1cnnc(N/N=C/c2ccc3c(c2)OCO3)[nH]1 | -12%
CCCOc1ccc(C2NC(=O)NC2=O)cc1 (stereo not drawn) | -3%
CC(C)(C)N(Cc1ccc2c(c1)OCO2)C(=O)/C=C\S(=O)c1ccccc1 (stereo not drawn) | 71µM*
CCN(CC)C(=O)C(Sc1nnnn1-c1ccc(O)cc1)c1ccccc1 (stereo not drawn) | 4%
COc1ccc(CCNC(=O)CCOc2cc(C)ccc2C)cc1OC | 8%
CCn1c(SCC(=O)Nc2ccc(NC(=O)c3cccs3)cc2)nnc1-c1cccnc1 | -22%
O=C(NCCc1ccc(F)cc1)C(=O)NCC(c1cccs1)S(=O)(=O)c1ccc(Cl)cc1 (stereo not drawn) | 8%
Cc1cccc(NC(=O)CO/N=C/c2ccc3c(c2)OCO3)c1 | -11%
COc1ccc(N2CCN(C(=O)CCn3c(=O)c4cccn4c4cccnc43)CC2)cc1 | 0%
Cc1cccc2cc(CN(Cc3cccnc3)C(=O)c3ccccc3F)c(Cl)nc12 | 5%

The last three compounds of the part above come first, to join the parts:
SMILES | VDR inh
Cc1cccc(NC(=O)CO/N=C/c2ccc3c(c2)OCO3)c1 | -11%
COc1ccc(N2CCN(C(=O)CCn3c(=O)c4cccn4c4cccnc43)CC2)cc1 | 0%
Cc1cccc2cc(CN(Cc3cccnc3)C(=O)c3ccccc3F)c(Cl)nc12 | 5%
COc1cccc(N2CCN(Cc3nc(N)nc(Nc4ccccc4OC)n3)CC2)c1 | 19%
CSCCC(NC(=O)c1ccc(Cl)cc1)C(=O)OCC(=O)N1CCCC1=O (stereo not drawn) | -16%
CCc1ccc(OCC2c3cc(OC)c(OC)cc3CCN2C(=S)NC)cc1 (stereo not drawn) | -25%
Cc1cc(/C=C2/SC(=O)N(CC(=O)N3CCOCC3)C2=O)c(C)n1-c1ccccc1F | -11%
COc1ccc(-c2nc3ncnn3cc2C)cc1F | -19%
Cc1ccc(-c2nc(N3CCN(S(=O)(=O)c4ccc(F)cc4)CC3)c3ccc(Cl)cc3n2)cc1 | -34%
C/C=C/C(=O)OCC(=O)Nc1cccc(Br)c1 | 3%
COc1ccc(-c2nc3ccc(C(=O)NCC(OC)OC)cc3nc2-c2ccc(OC)c(OC)c2)cc1OC | 11%
CCC(C)Cn1c(/C=C/c2ccccc2)nc2ccccc21 (stereo not drawn) | -8%
Cc1cccc(C(=O)N=C2SC3CS(=O)(=O)CC3N2c2ccccc2)c1 (stereo not drawn) | -13%
Cc1cc(-c2nnc(SCC(=O)Nc3ccc(Br)cc3F)n2N)n[nH]1 | 2%
CCOC(=O)c1cc2sccc2n1CC(=O)C(C)(C)C | -9%
CCn1cc(/C=N/NC(=O)c2ccc(C#N)cc2F)c2ccccc21 | -1%
Cc1nc2cc(NC(=O)c3ccc(Cl)cc3)ccc2n1C | 5%
COc1cccc(C(=O)Oc2ccc(N3C(=O)CCC3=O)c(C)c2)c1 | 7%
COc1cc2c(cc1NC(=O)CN1C(=O)NC3(CCc4ccccc43)C1=O)oc1ccccc12 (stereo not drawn) | -6%
CC(=O)c1c(C)[nH]c(C(=O)COC(=O)CCSc2ccccc2)c1C | -11%
CNc1cc2c(Nc3cccc(Br)c3)ncnc2cn1 | 2%
Cc1ccc(-c2nc3cc(NC(=O)c4cc(Br)ccc4Cl)ccc3o2)cc1 | -8%
COc1cccc(CN2CC(C(=O)N3CCCC3)CCC2=O)c1 (stereo not drawn) | -9%
Cc1ccc(NC(=S)N(CCN(C)C)C(C)c2ccco2)cc1C (stereo not drawn) | -12%
CC(C)(C)NC(=O)C[C@H]1C[C@H](C(=O)N2CCOCC2)[C@@]2(CCC3CCCC3)c3[nH]c4cc(-c5ccco5)ccc4c3CCN2C1=O | 10%
CC1(C)CC2CC(C)(CN2C(=O)COC(=O)CNC(=O)c2ccc(Cl)c(Cl)c2)C1 (stereo not drawn) | 3%
Cc1c(NC(=O)C(C)SC(=S)N2CCCC2)c(=O)n(-c2ccccc2)n1C (stereo not drawn) | -12%
Cc1cccc(NC(=O)C2CCN(C(=O)c3ccc(Cl)cc3)CC2)n1 | -9%
CS(=O)(=O)Nc1cccc(C2=NN(C(=O)CCCC(=O)O)C(c3cccs3)C2)c1 (stereo not drawn) | -9%
C=CCOc1ccc(CNn2cn[nH]c2=S)cc1OCC | 7%
O=C(O)C1C2CC(C(Br)C2Br)C1C(=O)O (stereo not drawn) | -17%
CCOc1ccc(CCNC(=O)C2CCC(CNS(=O)(=O)c3ccc(Cl)cc3)CC2)cc1OCC (stereo not drawn) | 0%
Cc1ccc(N2CCN(S(=O)(=O)c3ccc(F)c(C(=O)Nc4ccc(Cl)cc4Cl)c3)CC2C)cc1 (stereo not drawn) | 13%
Cc1ccc(Cl)cc1N1CCN(C(=O)C(C)n2ncn3cccc3c2=O)CC1 (stereo not drawn) | 7%&8%
CN(C)c1cccc(C(=O)OCC(=O)Nc2nccs2)c1 | -6%
CCOC(=O)NCCOc1ccc(Oc2ccccc2)cc1 | -8%
Cc1ccccc1-n1c(C)nnc1SC(C)C(=O)NCC1CCCO1 (stereo not drawn) | 14%
c1ccc2c(c1)OCC(c1csc3ncnc(N4CCCCC4)c13)O2 (stereo not drawn) | -9%
CSc1nnc(SCc2nc3sc(C(=O)O)c(C)c3c(=O)[nH]2)s1 | -8%
O=C(Nc1ccccc1F)c1ccc(Cn2cc(Cl)cn2)cc1 | -12%
CCOc1ccc2nc(SCC3CC3(Cl)Cl)[nH]c2c1 (stereo not drawn) | -14%
O=C(Cn1cc(C(=O)C(F)(F)F)c2ccccc21)N1CCOCC1 | -17%
Cc1nc(CNS(=O)(=O)c2ccc3ccccc3c2)cs1 | -19%
CCC(CC)c1nnc(NC(=O)CN2C(=O)NC3(CCCC3)C2=O)s1 | -2%
COc1cc(N2CCOCC2)ccc1C=C(C#N)C#N | 15%
CCc1ccc(CNC(=O)CN2C(=O)C3CCCCN3c3ccc(C(=O)N4CCCC4)cc32)cc1 (stereo not drawn) | 9%
Cc1ccc(SCCC(=O)OC(C(=O)NC(N)=O)C(C)C)cc1 (stereo not drawn) | ?
O=C(CNS(=O)(=O)c1ccc(Cl)cc1)OCC(=O)N1CCCc2ccccc21 | -26%
Cc1csc(=O)n1CCC(=O)OCC(=O)NNC(=O)c1ccc(Cl)cc1 | -24%
CCN1CCN(C(=O)N[C@H](C(=O)N[C@@H]2C(=O)N3[C@@H]2SC(C)(C)[C@@H]3C(=O)O)c2ccccc2)C(=O)C1=O | 6%
Cc1cc(C)cc(N(C(=O)c2csnn2)C(C(=O)NC2CCCCC2)c2ccccn2)c1 (stereo not drawn) | 17%
CCC(=O)c1c(CC)c2n3c1CC[C@H]3CCC2 | 5%
CCOc1ccc(CCNC(=O)CS(=O)(=O)Cc2nc(-c3ccccc3F)oc2C)cc1 | 1%
CCN(CC)C(=O)CSc1nc2c(sc(=S)n2CC)c(=O)n1-c1ccccc1 | -1%
CCN(C(=O)Cn1c(=O)n(-c2ccccc2)c(=O)c2ccc(C(=O)NCc3ccc4c(c3)OCO4)cc21)c1cccc(C)c1 | 3%
Cc1ccc(C(C(=O)NC2CCCC2)N(C(=O)Cc2cccs2)c2cccc(C)c2C)o1 (stereo not drawn) | 4%
C=C1C(C(=O)Nc2ccccc2)C1C(=O)Nc1ccccc1 (stereo not drawn) | 4%
COc1cccc(CNC(=O)CCN2C(=S)NC(C)(C)CC2C)c1 (stereo not drawn) | 9%
CCOc1cc(/C=C2\SC(=NC)N(C)C2=O)c(Br)cc1OC(C)=O | -10%
O=C(CN1C(=O)COc2ccccc21)c1ccc(Cl)cc1 | 4%
O=C(CS(=O)(=O)c1c[nH]c2ccccc12)N1CCc2ccccc21 | -5%
CNC(=O)CSc1nnnn1-c1ccc2c(c1)OCCO2 | 10%

No new results follow: an excerpt of the list.
SMILES | VDR inh
CCC(CC)c1nnc(NC(=O)CN2C(=O)NC3(CCCC3)C2=O)s1 | -2%
COc1cc(N2CCOCC2)ccc1C=C(C#N)C#N | 15%
CCc1ccc(CNC(=O)CN2C(=O)C3CCCCN3c3ccc(C(=O)N4CCCC4)cc32)cc1 (stereo not drawn) | 9%
Cc1ccc(SCCC(=O)OC(C(=O)NC(N)=O)C(C)C)cc1 (stereo not drawn) | ?
O=C(CNS(=O)(=O)c1ccc(Cl)cc1)OCC(=O)N1CCCc2ccccc21 | -26%
